KCNQ2 inh: KCNQ2 channel blockers in CHO-K1 cells – cell-based, FluxOR thallium flux, B-score, primary screen (AID 2156) | O88943 | 20 min; hits give low values; only compounds with negative scores are shown here; some inactives read as strong as hits | B-score at 10 µM | actives 1.1% (n = 310,000);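 active = fluorescence ratio B-score at most minus 3 library SDs, with starting brightness B-score within 2 library SDs, cut at about -5.5 in these data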
Target sequence (O88943 whole entry, looked up): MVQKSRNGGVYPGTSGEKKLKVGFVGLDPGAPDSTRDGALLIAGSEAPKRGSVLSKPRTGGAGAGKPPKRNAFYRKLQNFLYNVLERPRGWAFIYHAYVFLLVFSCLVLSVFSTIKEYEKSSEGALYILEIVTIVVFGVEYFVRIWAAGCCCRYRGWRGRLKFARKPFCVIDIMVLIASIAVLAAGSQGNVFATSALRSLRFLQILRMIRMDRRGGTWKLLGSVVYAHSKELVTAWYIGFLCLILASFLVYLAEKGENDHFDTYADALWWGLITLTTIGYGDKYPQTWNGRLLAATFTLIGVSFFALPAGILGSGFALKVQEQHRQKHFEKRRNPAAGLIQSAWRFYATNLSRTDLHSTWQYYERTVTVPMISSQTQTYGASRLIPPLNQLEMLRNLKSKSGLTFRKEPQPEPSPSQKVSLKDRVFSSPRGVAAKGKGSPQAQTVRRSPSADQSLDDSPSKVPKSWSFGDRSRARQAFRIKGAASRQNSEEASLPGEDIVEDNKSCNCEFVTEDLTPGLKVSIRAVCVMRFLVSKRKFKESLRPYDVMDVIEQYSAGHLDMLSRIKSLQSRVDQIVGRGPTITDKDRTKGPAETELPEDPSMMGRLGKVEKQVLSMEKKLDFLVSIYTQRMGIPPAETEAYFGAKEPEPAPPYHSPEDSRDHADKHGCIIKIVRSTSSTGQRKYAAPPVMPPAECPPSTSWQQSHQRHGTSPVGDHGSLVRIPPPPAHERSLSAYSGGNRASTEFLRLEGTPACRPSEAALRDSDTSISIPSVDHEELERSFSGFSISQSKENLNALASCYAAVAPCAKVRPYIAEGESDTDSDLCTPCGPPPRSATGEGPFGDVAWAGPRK
KCNQ2 inh baseline: further read-out of KCNQ2 inh, marked with its call; B-score; measured here: initial fluorescence intensity artifact check;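 brightness before thallium and not channel activity; 0 = typical well and far values either way flag optical interference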
Numbers without * were called inactive; i = inactive. Not all compounds are listed. The share of hits here may be higher or lower than overall.

SMILES	KCNQ2 inh	KCNQ2 inh baseline
Cc1onc(C(=O)Nc2ccc3c(c2)OCO3)c1[N+](=O)[O-]	i	-1.6
Cc1cccc(S(=O)(=O)C(C#N)c2nc3ccccc3nc2N2CC(C)OC(C)C2)c1 (stereo not drawn)	i	-0.22
O=[N+]([O-])/C=C/c1cn(Cc2ccc(Cl)cc2)c2ccccc12	i	-0.68
COCCn1c(SCC(=O)N(C(C)C)C(C)C)nnc1-c1cc2ccccc2cc1O	i	0.96
CCC1CSC(Nc2ccc(C(=O)/C=C/c3ccc(Br)cc3)cc2)=N1 (stereo not drawn)	i	0.76
CC(NC(=O)c1ccccc1F)C(=O)O (stereo not drawn)	i	-0.63
Cc1cc(NC(=O)CSCC(=O)Nc2cc(C(F)(F)F)ccc2N2CCCC2)no1	i	0.18
OCCNc1nc(N2CCN(c3ccccc3)CC2)nc2ccccc12	i	-1.1
COC(=O)[C@H](Cc1ccccc1)NC(=O)NCCc1ccccc1F	i	1.1
CCOC(=O)c1[nH]c(=O)[nH]c1CNc1ccccc1C#N	i	-0.79

Given in markdown: entries from further up.
| SMILES | KCNQ2 inh | KCNQ2 inh baseline |
| --- | --- | --- |
| Cc1cc(NC(=O)CSCC(=O)Nc2cc(C(F)(F)F)ccc2N2CCCC2)no1 | i | 0.18 |
| OCCNc1nc(N2CCN(c3ccccc3)CC2)nc2ccccc12 | i | -1.1 |
| COC(=O)[C@H](Cc1ccccc1)NC(=O)NCCc1ccccc1F | i | 1.1 |

Next section
SMILES	KCNQ2 inh	KCNQ2 inh baseline
COc1ccc(NC(=O)NC2CCN(C(C)C)CC2)c(OC)c1	i	0.42
COc1ccc(NC(=O)COC(=O)COc2ccc(Br)cc2)cc1	i	0.16
Fc1cccc(CSc2ccc(-c3ccco3)nn2)c1	i	1.6
Cc1ccccc1N(CC(=O)NCc1ccco1)C(=O)CCC(=O)Nc1nccs1	i	-1
COc1ccc(/C=N/NS(C)(=O)=O)c(OC)c1	i	0.01
COc1cccc(C(=O)OCn2nnc3ccccc3c2=O)c1OC	i	-1.9
Cc1cccc(C(CC(=O)NCCc2ccccc2)c2ccccc2)c1O (stereo not drawn)	i	0.29
O=CN/N=C/c1c(O)ccc2ccccc12	i	8.9
Cc1cc(C)c(S(=O)(=O)c2ccccc2)c(N(C)C)n1	i	-0.64
COc1cc2c3nnc(-c4ccc(F)cc4)c-3cn(Cc3ccc(F)cc3)c2cc1OC	i	0.18
Cc1cccn2c(CNCC3OCCc4ccccc43)c(C(=O)N3CCCCC3)nc12 (stereo not drawn)	i	1.7
CC(=O)Nc1nc(COc2ccccc2)cs1	i	-0.08
Cc1nc2nc(-c3cccs3)cn2nc1C	i	15
Cc1nc2c(-c3ccc(F)cc3)cnn2c(N)c1-c1ccc(F)cc1	i	-0.01
CC(=O)c1ccc(Nc2c([N+](=O)[O-])ccc3nonc23)cc1	i	2.3
COc1ccc(S(=O)(=O)NC(C)C(=O)NCCN2CCOCC2)cc1Cl (stereo not drawn)	i	-0.84
COc1ccccc1C(=O)NC(=O)COC(=O)c1ccco1	i	-0.18
O=C(NCc1ccc(OC(F)(F)F)cc1)C12CN(Cc3ccccc3)CC1C(c1cccc([N+](=O)[O-])c1)=NO2 (stereo not drawn)	i	-0.26
CC(C)CNC(=O)c1cc(-c2ccc(Br)cc2)on1	i	-0.07
Cc1cccc(CN2C(=O)N/C(=C/c3ccc(C)s3)C2=O)c1	i	0.3

Complete entries as entered above:
Cc1nc2c(-c3ccc(F)cc3)cnn2c(N)c1-c1ccc(F)cc1 is listed as KCNQ2 inh = i; KCNQ2 inh baseline = -0.01
O=C(NCc1ccc(OC(F)(F)F)cc1)C12CN(Cc3ccccc3)CC1C(c1cccc([N+](=O)[O-])c1)=NO2 (stereo not drawn) is listed as KCNQ2 inh = i; KCNQ2 inh baseline = -0.26

Following part
SMILES	KCNQ2 inh	KCNQ2 inh baseline
CC1CCCCN1CCNC(=O)c1ccc2c(c1)N(Cc1cccc(Cl)c1)C(=O)c1ccccc1S2=O (stereo not drawn)	i	-0.35
COC(=O)c1cc(OC)c(OC)cc1NCC(=O)Nc1cccc(C(F)(F)F)c1	i	-1.1
COc1ccc(C(=O)NCCNc2ncc(C(F)(F)F)cc2Cl)cc1[N+](=O)[O-]	i	-0.81
Cn1c(CNC(=O)c2ccccc2)nnc1SCC(=O)N1CCN(c2ccccc2)CC1	i	0.01
O=C(CCSc1ccccc1)Nc1nc2c(s1)COc1ccccc1-2	i	-0.06
O=C(COC(=O)c1cc(Cl)ccc1O)NCCNC(=O)COC(=O)c1cc(Cl)ccc1O	i	-0.22
O=C(CC(NCc1ccccn1)C(=O)O)Nc1ccccc1Cl (stereo not drawn)	i	-1.2
Cc1nn(-c2ccccc2)c(Cl)c1/C=C/C(=O)c1ccccc1	i	-0.66
Cc1ccc2c(c1)NC(=O)C(CC(=O)NCCCN1CCN(c3cc(Cl)ccc3C)CC1)O2 (stereo not drawn)	i	-1.4
CN(CC(=O)N1CCN(c2cccc(Cl)c2)CC1)S(=O)(=O)c1cnc[nH]1	i	1.3
CNC(=O)C1CC(=O)N(c2ccc(C)cc2)C1 (stereo not drawn)	i	-0.44
CCc1cc(OCCCCNCc2ccccc2)ccc1Cl	i	0.72
O=C(NCCO)/C(=C/c1ccc2c(c1)OCO2)NC(=O)c1ccc(Br)cc1	i	-0.92
Cc1ccccc1S(=O)(=O)Cc1ccc(C(=O)N2CCN(c3ccccc3F)CC2)o1	i	-2.3
O=c1c(S(=O)(=O)c2ccc(Cl)cc2)cn(Cc2cccc(F)c2)c2ccc(F)cc12	i	-0.05
Cc1ccc(C(=O)Nc2c(C(=O)NCc3ccco3)cnn2-c2ccccc2)cc1	i	-1.4
COCCN1C(=O)c2ccccc2C(C(=O)NCc2ccco2)C1c1c[nH]c2ccccc12 (stereo not drawn)	i	0.11
CCN(Cc1ccc(C#CCCO)cc1)CC1CCCN(CCc2cccc(F)c2)C1 (stereo not drawn)	i	0.2
Cc1cc(C)cc(NC(=O)c2sc3nc(C)cc(C)c3c2N)c1	i	-0.6
CCCSc1ccc([C@@H]2[C@@H]3C(=O)N(C)C(=O)[C@@H]3[C@]3(C(=O)OC)CCCCN23)cc1OC	i	0.27

Copied from the list.
Cc1ccc(C(=O)Nc2c(C(=O)NCc3ccco3)cnn2-c2ccccc2)cc1 – KCNQ2 inh baseline = -1.4
O=C(NCCO)/C(=C/c1ccc2c(c1)OCO2)NC(=O)c1ccc(Br)cc1 – KCNQ2 inh baseline = -0.92
Cc1ccccc1S(=O)(=O)Cc1ccc(C(=O)N2CCN(c3ccccc3F)CC2)o1 – KCNQ2 inh baseline = -2.3
Cc1cc(C)cc(NC(=O)c2sc3nc(C)cc(C)c3c2N)c1 – KCNQ2 inh baseline = -0.6
COCCN1C(=O)c2ccccc2C(C(=O)NCc2ccco2)C1c1c[nH]c2ccccc12 (stereo not drawn) – KCNQ2 inh baseline = 0.11

Later entries.
SMILES	KCNQ2 inh	KCNQ2 inh baseline
CN(C(=O)C1CCC(=O)N(CCc2ccc(Cl)cc2)C1)C1CCOCC1 (stereo not drawn)	i	0.6
O=C(NCCCCCCNC(=O)N1CCCCCC1)N1CCCCCC1	i	1.6
COc1ccc(-n2nc3c(c2NC(=O)c2cc(Br)ccc2Cl)CS(=O)C3)cc1 (stereo not drawn)	i	0.4
Oc1ccc(N2CCN(C(=S)NCCc3ccccc3)CC2)cc1	i	-0.88
COc1ccc(CCNC(=O)CS(=O)Cc2nc(-c3ccccc3Cl)oc2C)cc1OC (stereo not drawn)	i	2.1
O=C(NCCCNc1ccc(C(F)(F)F)cc1[N+](=O)[O-])c1cc(F)c(F)cc1Cl	i	1.9
Cc1ccc(C)c(NC(=S)N(Cc2ccco2)C(C)c2cccs2)c1 (stereo not drawn)	i	0.23
COc1ccccc1CNC(=O)CCNS(=O)(=O)c1cccc2nonc12	i	1.2
COc1cccc(CN(C)Cc2nc3cc(C(F)(F)F)ccc3c(=O)[nH]2)c1	i	4.3
c1ccc(-n2c(-c3cccs3)nc3nc4ccccc4nc32)cc1	i	0.77
N#CC1(CCCN2CCCCC2)c2ccccc2CCc2ccccc21	i	0.52
COC(=O)c1cc(OC)c(OC)cc1NC(=S)Nc1cccc(Cl)c1	i	-0.96
CCOC(=O)Cc1csc(NC(=O)CSc2nnc(-c3ccc(OC)cc3)n2C)n1	i	0.21
Cc1nnc(SC(C)C(=O)Nc2ccc(Cl)cn2)n1Cc1ccccc1 (stereo not drawn)	-6.2*	-0.97*
CCc1nccn1CCC(=O)N1CCCC(N2CCN(c3ccccc3C)CC2)C1 (stereo not drawn)	i	0.06
O=C(NCCc1c[nH]c2ccccc12)OCCCCOC(=O)NCCc1c[nH]c2ccccc12	i	0.48
N/C(=N\OC(=O)Nc1cccc(C(F)(F)F)c1)c1ccno1	i	0.1
O=C(O)/C=C\c1cccc(-n2cnnn2)c1	i	0.1
O=C1C2ON(c3ccccc3)C(c3ccccc3F)C2C(=O)N1c1ccccc1 (stereo not drawn)	i	0.04
Cc1c(C)c2ccc(OC(C)C(=O)N3CC[C@@]4(O)CCCC[C@H]4C3)cc2oc1=O (stereo partly drawn)	i	-3.6
Cc1ccsc1C1Nc2ccccc2-c2nc3ccccc3n21 (stereo not drawn)	i	-1.6
CCOc1ccc(C(c2nnnn2C(C)(C)C)N2CCN(C(=O)c3ccco3)CC2)cc1 (stereo not drawn)	i	-1.1
Cc1nn(C)c(C)c1/C=C/C(=O)c1cccs1	i	1.2
CC(c1ccc(F)cc1)n1c(Cn2ncc3ccccc3c2=O)n[nH]c1=S (stereo not drawn)	i	0.42
c1ccc(-c2nnc(CN3CCN(C(c4ccccc4)c4ccccc4)CC3)o2)cc1	i	0.53
Cc1sc(NC(=O)c2ccccc2F)c(CN2CCCCC2)c1C	i	-2.6
O=C(NCCc1ccccn1)C1CCCN(S(=O)(=O)Cc2ccccc2)C1 (stereo not drawn)	i	-0.53
O=C(CC(C(=O)O)C1CCCO1)NCc1ccccc1 (stereo not drawn)	i	0.57
O=C(O)C1CN(c2nc(Cl)ccc2[N+](=O)[O-])C1	i	-0.2
O=Cc1cc2cc3c(cc2nc1Cl)OCCO3	i	-1.1
O=S(=O)(Nc1cccnc1Cl)c1ccc(F)cc1	i	1.5
O=C(NCC1CCCO1)c1cc2ccccc2oc1=O (stereo not drawn)	i	-0.01
COC(=O)c1cc(NC(=O)c2cccnc2)ccc1N1CCOCC1	i	-2.3
CC1=CC(C)(C)Nc2ccc(OC(=O)C(C)N3C(=O)c4ccccc4C3=O)cc21 (stereo not drawn)	i	-2.7
COc1ccc(N2CCN(C3CC(=O)NC3=O)CC2)cc1 (stereo not drawn)	i	0.12
O=c1c(Cl)c(NCCCO)cnn1-c1nc2ccccc2[nH]1	i	-0.25
CCCC(C)NC(=O)c1cc(Cl)ccc1OC (stereo not drawn)	i	-0.05
OCCN1CCN(c2ncnc3c2c(-c2ccccc2)cn3-c2ccc(F)cc2)CC1	i	0.03
CC1(C(=O)Nc2cccc(C(F)(F)F)c2)CO1 (stereo not drawn)	i	-0.14
Cc1cccc(Oc2nc(-c3ccncc3)nc3ccccc23)c1	i	1.2
CC(Nc1nc2ccccc2n2cnnc12)c1ccccc1 (stereo not drawn)	i	0.15
CCOC(=O)c1cnc(SCc2ccccc2)nc1N	i	0.41
Cc1ccc(S(=O)(=O)N2CCOCC2)cc1C(=O)OCC(=O)Nc1ccc2[nH]c(=O)[nH]c2c1	i	-0.84
COc1ccccc1N1CCN(/N=C/C=C\c2ccco2)CC1	i	-0.4
CCOCCCNS(=O)(=O)c1ccccc1	i	5.6
CCOC(=O)Nc1ccc2c(c1)N(C(=O)CCN1CCN(C)CC1)c1ccccc1S2	i	2.3
Cc1cc(C)cc(N2C(=O)CC(n3nc(C)cc3C)C2=O)c1 (stereo not drawn)	i	0.54
O=C(NCc1cccnc1)C(=O)C1C(=O)Nc2ccccc21 (stereo not drawn)	i	-1.9
FC(F)(F)c1ccc(N2CCN(c3cc(-c4ccccc4)nc4ncnn34)CC2)nc1	i	0.07
CS(=O)(=O)N(CC(=O)O)c1cc(Cl)cc(Cl)c1	i	-0.31

(further entries)
SMILES	KCNQ2 inh	KCNQ2 inh baseline
O=C(COc1ccccc1[N+](=O)[O-])Nc1cc(C(=O)O)cc(C(=O)O)c1	i	0.2
O=C(NN1C(=O)/C(=C/c2cccc(O)c2)SC1=S)c1ccccc1O	-8.3*	-1.5*
CCn1c(/C=C2/C(=O)N(C)c3ccccc32)nc2ccccc2c1=O	i	-0.65
COC(=O)n1c(=O)oc2ccccc21	i	1.2
C=C(Br)Cn1c(CC(C)C)nc2ccccc21	i	1.8
CCCC1=Nc2cc(C(=O)N3CCN(c4ccccn4)CC3)ccc2Sc2ccc(C)cc21	-5.7*	-1.3*
CN1/C(=C\C(=O)COC(=O)Cn2nnc(-c3ccccc3)n2)C(C)(C)c2ccccc21	i	0.68
CC(C)c1ccc(Nc2nc(CC(=O)O)cs2)cc1	i	0.98
N#Cc1nc(-c2ccc(F)cc2)oc1N1CCCC1	i	0.76
COC(=O)c1ccccc1NC(=O)Cn1nnc(-c2ccc(OC)cc2)n1	i	0.7
O=C(COC(=O)COc1ccccc1Cl)Nc1ccccc1OC(F)F	i	1.9
CCN(CC)CC(=O)c1c(N)n(Cc2ccccc2)c(=O)n(C)c1=O	i	1.8
COc1ccccc1-c1noc(-c2ccccc2C(=O)NCc2ccco2)n1	i	-3.8
COc1ccccc1C(=O)N1CCC(C(=O)c2ccc(F)cc2)CC1	i	1.3
CN(C)C(/C=C/Nc1cccc([N+](=O)[O-])c1)=C(C#N)C#N	i	-0.12
O=C(NCCC1=CCCCC1)C1CCN(C(=O)c2ccc(Br)cc2)CC1	i	-1.3
Cc1cccc(C(=O)NCC(=O)N2CCN(S(=O)(=O)c3cc(C)ccc3C)CC2)c1	i	0.88
O=c1cnn(-c2ccccc2)c(-c2ccccc2)c1	i	-2.1

Another view of part of the listing above.
mol | KCNQ2 inh | KCNQ2 inh baseline
CC1CCCCN1CCNC(=O)c1ccc2c(c1)N(Cc1cccc(Cl)c1)C(=O)c1ccccc1S2=O (stereo not drawn) | i | -0.35
Cc1ccc2c(c1)NC(=O)C(CC(=O)NCCCN1CCN(c3cc(Cl)ccc3C)CC1)O2 (stereo not drawn) | i | -1.4
CCCC(C)NC(=O)c1cc(Cl)ccc1OC (stereo not drawn) | i | -0.05
COc1ccc(N2CCN(C3CC(=O)NC3=O)CC2)cc1 (stereo not drawn) | i | 0.12
